High-throughput results: PubChem BioAssay, ICCB-Longwood Screening Facility, Harvard Medical School
HCMV UL50-53 inh = cytomegalovirus nuclear egress complex inhibition; HTRF UL50-UL53 interaction, normalized percent inhibition; inhibition, % (test concentration not listed); 0.15% of 190,000 active;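 active means both replicates at 50% or more, plus weaker picks with an unusually low signal ratio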;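 further: stock transfer was 100 nL into about 20 µL; 0% = negative control wells and 100% = wells with untagged competitor protein; inactives centre near -12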
GIV-Gai inh = blocks GIV peptide binding to rat Galpha-i3 | AID 1224905 | P08753 | 0.42% of 210,000 active | Galpha-i3/FITC-GIV peptide fluorescence polarization, 90 min; stronger effect = lower value; scaled: aluminum fluoride 0%, vehicle 100% | percent of control (FP), % (test concentration not listed);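 active means replicate mean at 85% of control or lower, very high polarization wells dropped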;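 further: wells of about 15 µL received 100 nL stock; the first replicate is given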
Target sequence (P08753 whole entry, looked up): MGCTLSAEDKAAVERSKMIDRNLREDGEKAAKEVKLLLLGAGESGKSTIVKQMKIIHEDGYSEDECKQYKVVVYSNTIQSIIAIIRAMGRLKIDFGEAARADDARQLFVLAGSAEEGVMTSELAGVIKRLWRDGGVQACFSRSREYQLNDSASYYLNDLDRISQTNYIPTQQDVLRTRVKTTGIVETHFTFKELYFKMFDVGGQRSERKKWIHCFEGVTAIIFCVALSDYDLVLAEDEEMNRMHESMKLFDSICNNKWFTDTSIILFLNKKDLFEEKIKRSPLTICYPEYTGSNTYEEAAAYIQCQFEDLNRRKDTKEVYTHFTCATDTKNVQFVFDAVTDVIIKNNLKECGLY
Sa growth 42C = blocks Staphylococcus aureus growth | S. aureus RN4220 growth, OD600, 20 h, 42 °C; stronger effect = lower value | relative growth, % (test concentration not listed) | 0.53% of 170,000 active;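 active means growth at 42 °C up to 50% and 20 or more points under that at 30 °C, or under 10% at both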;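 further: 300 nL library stock went into each well; scaled to the means of positive and negative controls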
Sa growth 42C second temp = second read-out of Sa growth 42C, no call of its own (marks repeat the call); relative growth, %; measured here: growth at 30 °C;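 optical density after 20 h as mean of two plates; 100% = untreated growth and lower means inhibition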
* hit, by the source's call; nt = no result given; & = joins results of further samples.

SMILES	HCMV UL50-53 inh	GIV-Gai inh	Sa growth 42C	Sa growth 42C second temp
Cc1ccc(-c2noc(CNC(=O)CSc3ccccc3)n2)cc1	9	111	117	94
O=C1NC(c2ccc(C(F)(F)F)cc2)=CCN1c1ccccc1O	nt	101	84	82
O=C(Nc1ccc(F)cc1)c1ccccc1NS(=O)(=O)N1CCCC1	1	nt	105	64
O=C(O)/C=C/C(=O)N1CCN(c2ncc(C(F)(F)F)cc2Cl)CC1	-3	103	113	96
O=C(NC1CCCCC1)c1ccc(-n2ccc3ccccc32)s1	38*	101	102	95
COc1cc(C2CC(=O)NC(SCC(=O)Nc3ccc(C)c(C)c3)=C2C#N)cc(OC)c1OC (stereo not given)	-31	101	79	79
CC1=C(C(=O)NCc2cccc(F)c2)C2(CCCCC2)OC1=O	nt	101	101	87
O=C(CC1SC(N2CCCCC2)=NC1=O)Nc1cccc(Cl)c1Cl (stereo not given)	-1	nt	98	100
C=Cn1cc[n+](CC(=O)c2ccc(Cl)cc2)c1	-18	107	117	71
CCOC(=O)CNC(=O)Nc1ncc(-c2ccccc2)n1C	-22	102	nt	nt
CCOC(=O)c1cnn(C(=O)COc2ccc(C)c3c2CCC3)c1N	-1	101	91	88
CNC(=O)Cn1ncc2c3ccccc3n(Cc3ccccc3)c2c1=O	0	105	96	89
COc1cc(OC)c(NC(=O)c2cc3c(=O)oc4ccc(C)cc4c3s2)cc1Cl	1	106	95	84
O=C1NC(c2ccccc2)(C(F)(F)F)N=C2SC3=C(CCCC3)N12 (stereo not given)	-24	nt	99	92
C=CCn1c(SCC(=O)Nc2ccc3c(c2)OCO3)nc2scc(-c3ccc(F)cc3)c2c1=O	-12	104	nt	nt
CC1CC(C)CN(c2c(-c3ccccc3)c(=O)c2=O)C1 (stereo not given)	-70	107	nt	nt
CCOCCCNC(=O)C1c2c(n(C)c3ccccc23)SCC(=O)N1c1ccc(F)cc1 (stereo not given)	-15	97	nt	nt
c1ccc(Cn2c3c(c4ccccc42)CCc2nonc2-3)cc1	nt	106	105	89
CC1CCN(C(=O)c2ccccc2NC(=O)C(C)(C)C)CC1	-45	102	109	102
COc1cc(C(=O)NN2CCN(C)CC2)cc(OC)c1OC	nt	104	112	88
Cc1ccc(-c2nc3ccc(Cl)cn3c2Nc2ccc3c(c2)OCCO3)s1	-22	100	100	90
CSc1cccc(NC(=O)C2(S(=O)(=O)c3ccc(C)cc3)CC2)c1	nt	105	140	82
CCn1c(Sc2nc(C)nc3scc(-c4cccs4)c23)n[nH]c1=O	-4	nt	92	58
O=C(Nc1nnc(C(F)(F)F)s1)C(Cc1ccccc1)N1C(=O)C2C3C=CC(C3)C2C1=O (stereo not given)	-11	100	105	65
CCOC(=O)c1sc2nc(C)nc(N3CCN(c4ccccc4)CC3)c2c1C	-4	99	nt	nt
Cc1cc2c(cc1S(=O)(=O)N1CCN(C(=O)c3cc4ccccc4[nH]3)CC1)OC(C)C(=O)N2 (stereo not given)	-32	108	nt	nt
COC(=O)c1ccsc1NC(=O)CC1SC(N)=NC1=O (stereo not given)	-14	104	84	83
COc1ccc(C2C(C(=O)Nc3ccccc3)=C(C)Nc3c(C(=O)Nc4ccccc4)cnn32)cc1 (stereo not given)	18	99&102	138	100
CCCOc1c(Cl)cc(C(=O)N(Cc2cccc(OC)c2)C2CCS(=O)(=O)C2)cc1Cl (stereo not given)	5	111	106	88
CC(=O)Nc1ccc(Oc2nc(-c3ccccc3)ns2)cc1	-16	105	120	88
COc1ccc(/C=C/C(=O)Nc2c(C(N)=O)oc3ccccc23)cc1OC	-44	100	97	83
Cc1ccc(CNC(=O)c2nccnc2C(=O)O)cc1	-37	103	nt	nt
Cc1c(O)ccc(C(=O)Cc2ccc(F)cc2)c1O	-13	101	115	84
COc1ccc(NC2CCCCC2NS(=O)(=O)c2ccccc2)cc1 (stereo not given)	-5	103	91	83
CNC(=O)CN(Cc1ccccc1)S(=O)(=O)c1ccccc1	-4	99	101	104
CC(Oc1ccc(Br)cc1)C(=O)N=c1sccn1C (stereo not given)	-8	nt	112	94
O=C(CSc1nnc2c(n1)Nc1ccccc1S2)N1CCN(Cc2ccccc2)CC1	-40	nt	74	80
CC(CCc1ccccc1)NC(=O)c1ccccc1C(=O)O (stereo not given)	nt	101	100	86
Cn1nc(C(=O)N(Cc2ccco2)C2CCCCC2)c2c1-c1ccccc1OC2	-12	96	112	86
COc1ccc(CN(C)C(=O)CN2CCCCC2C)c(OC)c1OC (stereo not given)	-24	nt	93	89
O=C(CCC1=NS(=O)(=O)c2ccccc2N1)NCc1ccc(F)cc1	-4	103	nt	nt
COC(=O)c1cc2oc3ccccc3c2n1CC(=O)Nc1ccc(N(C)C)cc1	-20	97	141	91
Cc1ccc(S(=O)(=O)c2nnn3c2nc(N2CCC(C)CC2)c2cc(Cl)ccc23)cc1C	-27	96	106	85
COc1cc(C(F)(F)F)c(C(=O)N(C)c2ccc(Cl)cc2)cn1	-6	105	129	106
O=C(CCNS(=O)(=O)c1cccc2nonc12)Nc1ccc(F)cc1	-48	99	98	80
CN1CCN(c2nc(-c3ccccc3)cc(-c3ccc(Br)cc3)n2)CC1	-9	98	98	98
CCCCSc1nc2c(c(C(F)(F)F)c1C#N)CCC2	-15	104	109	95
Cc1ccc(NC(=O)c2nnn(Cc3ccc(Br)cc3F)c2N)c(Cl)c1	-28	105	nt	nt
CC1(C)Cc2ccccc2C(=NCCC(=O)O)N1	-24	106	92	91
CC12COC3(C#N)CC1CCC32C (stereo not given)	-14	105	96	94
CCOC(=O)c1cc(-c2ccc(C)cc2)n(CC(=O)Nc2ccc(OC)cc2OC)c1C	-35	101	102	86
COc1ccc(Br)cc1/C=C1\N=C(c2ccc(Cl)c([N+](=O)[O-])c2)OC1=O	-26	102	nt	nt
COc1nc(Nc2ccc(Cl)cc2)nc(NC2CCCCC2)n1	6	100	110	43
Cc1c(C)n(CC(O)CN2C(=O)c3ccccc3S2(=O)=O)c2ccccc12 (stereo not given)	3	105	nt	nt
O=c1cccccc1NC1CCCCC1	-87	102	107	86
CCC(=O)c1cc(N)ccc1O	-26	nt	74	52
CC(=O)OC1(c2ccccc2)CC(C)CN(C)C1 (stereo not given)	-1	nt	111	93
Cn1nnnc1SCC(=O)NCCc1ccc(Cl)cc1	-36	nt	87	93
COC(=O)c1scc(-c2ccc(C)cc2)c1S(=O)(=O)Nc1ccc(NC(C)=O)cc1	nt	97	100	101
COc1ccc(CO[C@@H]2O[C@H](CO)[C@@H](O)[C@H](O)[C@H]2NC(C)=O)cc1OC	1	106	99	89

Other structures:
SMILES	HCMV UL50-53 inh	GIV-Gai inh	Sa growth 42C	Sa growth 42C second temp
O=C(NCc1ccccc1Cl)C1CCN(S(=O)(=O)c2ccc3c(c2)CCCN3C(=O)C2CCC2)CC1	nt	102	107	87
O=C1/C(=C\c2cccnc2)CN(Cc2ccccc2)C/C1=C\c1cccnc1	7	102	88	78
COC(=O)C(C)Sc1nc2c([nH]c3ccccc32)c(=O)n1-c1ccc(OC)cc1 (stereo not given)	nt	100	111	94
CCOc1ccc(CCNC(=O)CSc2cc(=O)n(C)c3cc(Cl)ccc23)cc1OCC	-8	109	113	91
Cc1ccc2ccc3cc(C(=O)Nc4ccccn4)nc3c2[nH]1	-2	101	nt	nt
O=C(Nc1cc(F)ccc1F)C1COc2ccccc2C1 (stereo not given)	nt	99	103	92
O=c1c2ccccc2nc2ccccn12	-134	107	97	91
CN(C)c1ccc(-c2nc3ccccn3c2NC2CCCC2)cc1	-40	101	84	78
CN(C)c1ncnc2sc3c(c12)CCCC3	13	nt	105	77
O=c1ccc2cc3c4c(oc3cc2o1)CCCC4	-20	104	80	82
COc1ccc(Cn2c(C(=O)O)c(CNCc3ccccc3F)c3ccc(OC)cc32)cc1	nt	105	119	84
CN(C)c1nc2c(c(=O)n(C)c(=O)n2C)n1C	-5	103	93	90
O=C(CC1Oc2ccccc2NC1=O)NCc1ccc2c(c1)OCO2 (stereo not given)	-4	108	nt	nt
COc1ccc(-n2c(C)cc(/C=C3/C(=N)N4C(=NC3=O)SN=C4S(C)(=O)=O)c2C)cc1Cl	-24	108	82	71
COc1ccc(-c2cc3ncc4c(n3n2)-c2cc(F)ccc2OC4)cc1	10	100	nt	nt
CC1=CC(C)(C)N(C(=O)CNC2CCCCC2)c2cc(C)ccc21	-11	103	106	79
CC(=O)n1c2ccccc2c2c(-c3ccc(C)cc3)c(N3CCOCC3)sc21	2	102	95	89
CC(SCc1nc2ccccc2[nH]1)c1ccccc1 (stereo not given)	nt	99	88	84
COc1ccc(C2CC(=O)N(CC(=O)Nc3ccc(C(F)(F)F)cc3)c3ccccc3S2)cc1 (stereo not given)	-4	106	106	79
CCCc1cc(=O)[nH]c(Nc2cc(Cl)cc(Cl)c2)n1	-5	100	22	9
O=C(CCCN1CCSc2ccccc21)Nc1ccc(Br)cc1	-24	107	nt	nt
O=C(NCCc1c[nH]c2ccccc12)c1cc(Cl)cc(Cl)c1	-23	nt	96	88
Cc1nn(-c2ccc(Cl)cc2)c(C)c1S(=O)(=O)NC1CC1	-15	110	nt	nt
CNC(=O)N1CCC(CC(=O)NCc2ccccc2)CC1	-14	101	nt	nt
Cc1c(CCNS(=O)(=O)c2ccccc2)sc2nc(-c3ccc(Cl)cc3)nn12	nt	106	115	95
CCOC(=O)c1nc(N2CCN(C(=O)OCC)CC2)c2c3c(sc2n1)CCCC3	-14	116	nt	nt
NS(=O)(=O)Cc1ccccc1	-5	nt	105	93
O=C(O)Cn1cc(C=C2C(=O)NC(=S)NC2=O)c2ccccc21	-12	99	100	95
Cc1ccccc1OCCn1c(SCc2nc3ccccc3[nH]2)nc2ccccc21	nt	102	101	55
COC(=O)c1c(C)oc(C)c1S(=O)(=O)NCC1CC1	-6	108	110	90
c1ccc2c(c1)[nH]c1c(N3CCOCC3)ncnc12	-12	101	85	79
CC(C)(C)N1CC(C(=O)Nc2ccc(S(=O)(=O)N3CCCCC3)cc2)CC1=O (stereo not given)	nt	105	88	91
COC(=O)c1cc2c(Cl)nc3ccc(C)cc3c2s1	nt	105	99	98
COCCn1c(C2CCCN2C(C)=O)nc2ccccc21 (stereo not given)	-20	105	nt	nt
COc1ccc(NC(=O)c2ccco2)cc1NC(=O)c1cccc(F)c1	-4	97	93	84
CN(CCO)c1ncnc2sccc12	8	nt	98	100
COc1ccc(CCNC(=O)c2ccc3c(=O)n(CCC4=CCCCC4)c(=S)[nH]c3c2)cc1OC	nt	104	116	80
CN(C)S(=O)(=O)c1ccc(S(=O)(=O)N(C)CC2COc3ccccc3O2)cc1 (stereo not given)	-3	101	105	97
Cc1ccc(-c2nn(C)c(=O)c3ccccc23)cc1CNC(=O)CN1CCOCC1	0	108	98	97
CCCN1C(=O)/C(=N\OCC(=O)NC23CC4CC(CC(C4)C2)C3)c2ccccc21	-37	nt	74	94
O=C(NCc1ccc(S(=O)(=O)N2C=CC(C(F)(F)F)=NCC2)s1)c1ccccc1	-3	112	110	88
CCCCS(=O)Cc1ccccc1 (stereo not given)	0	108	93	107

Part of the list above, as labelled records:
CC(SCc1nc2ccccc2[nH]1)c1ccccc1 (stereo not given)
  HCMV UL50-53 inh: nt; GIV-Gai inh: 99; Sa growth 42C: 88; Sa growth 42C second temp: 84
COc1ccc(C2CC(=O)N(CC(=O)Nc3ccc(C(F)(F)F)cc3)c3ccccc3S2)cc1 (stereo not given)
  HCMV UL50-53 inh: -4; GIV-Gai inh: 106; Sa growth 42C: 106; Sa growth 42C second temp: 79
CCCc1cc(=O)[nH]c(Nc2cc(Cl)cc(Cl)c2)n1
  HCMV UL50-53 inh: -5; GIV-Gai inh: 100; Sa growth 42C: 22; Sa growth 42C second temp: 9
O=C(CCCN1CCSc2ccccc21)Nc1ccc(Br)cc1
  HCMV UL50-53 inh: -24; GIV-Gai inh: 107; Sa growth 42C: nt; Sa growth 42C second temp: nt
